FGF22 binding: binders of human FGF22 protein, primary screen, FGF22 synaptogenesis inhibitor project, biophysical, thermal shift, single point; AID 651658, 2012; calls only at 9.99 µM; actives 1.5% (n = 340,000); recombinant FGF22 thermal shift, SYPRO orange fluorescence; percent of sucrose octasulfate shift, DMSO zero;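 active means melting point raised past a set limit in the mean and every replicate; inconclusive means no clear call; three in four hits are not shown here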
Target sequence (Q9HCT0 whole entry, looked up): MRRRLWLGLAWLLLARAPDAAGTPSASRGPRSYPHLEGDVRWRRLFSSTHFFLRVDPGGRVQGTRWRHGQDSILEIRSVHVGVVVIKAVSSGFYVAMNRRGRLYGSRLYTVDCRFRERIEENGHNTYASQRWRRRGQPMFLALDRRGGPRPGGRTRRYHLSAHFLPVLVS
AF4-AF9 inh: inhibitors of AF4 peptide binding to AF9, primary screen, biochemical, AlphaScreen, biotin-AF4 peptide, FLAG-AF9, single point; Protein AF-9 (Homo sapiens), P42568; inhibition, % at 10 µM; actives 0.47% (n = 350,000);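 active means every replicate reaching a set inhibition limit, whatever the replicate mean, cut at about 25% in these data; inconclusive means mean inhibition reaches that limit but some replicates miss it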;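 further: 0% = plate neutral control median and 100% = total signal loss; the record names both 10 and 1 µM as test concentration; the first replicate is given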
RanGTP-Impb inh: inhibitors of RanGTP-importin-beta interaction, primary screen, biochemical, FRET, CFP-Ran, YFP-importin-beta, homogeneous; inhibition, % (no concentration beside the values); Ran GTPase (GTP-bound) - importin-beta complex; actives 1.1% (n = 300,000); cell-free CFP-Ran/YFP-importin-beta FRET ratio; AID 2216, 2009;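 active means most replicates above 15%; inconclusive means exactly half above 15%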;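 further: 0% = DMSO wells and 100% = Ran loaded with GDP instead of GTP; wells of about 40 µL received 100 nL stock; the first replicate is given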
E coli growth: E. coli growth inhibition, primary screen, OD600. OD600 absorbance (concentration not given with the values). Escherichia coli growth, 23 h; stronger effect = lower value. actives 0.21% (n = 330,000);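 active means OD600 absorbance below the run mean of sample wells minus 3.6 SD, in any replicate, cut at about 0.56 in these data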;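 further: stock transfer was 300 nL into about 60 µL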
UCH37 DUB inh: inhibitors of human UCH37 deubiquitinase, primary screen, biochemical, Ub-AMC cleavage, fluorescence | Ubiquitin carboxyl-terminal hydrolase isozyme L5 (Homo sapiens), Q9Y5K5 | purified proteasome/UCH37 | inhibition, % (concentration not given with the values) | actives 0.33% (n = 330,000) | AID 588478, 2011;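 active means mean of two replicates above 20%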;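 further: 0% = compound-free wells with enzyme and 100% = wells lacking proteasome; stock transfer was 100 nL into about 20 µL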
Target sequence (Q9Y5K5 whole entry, looked up): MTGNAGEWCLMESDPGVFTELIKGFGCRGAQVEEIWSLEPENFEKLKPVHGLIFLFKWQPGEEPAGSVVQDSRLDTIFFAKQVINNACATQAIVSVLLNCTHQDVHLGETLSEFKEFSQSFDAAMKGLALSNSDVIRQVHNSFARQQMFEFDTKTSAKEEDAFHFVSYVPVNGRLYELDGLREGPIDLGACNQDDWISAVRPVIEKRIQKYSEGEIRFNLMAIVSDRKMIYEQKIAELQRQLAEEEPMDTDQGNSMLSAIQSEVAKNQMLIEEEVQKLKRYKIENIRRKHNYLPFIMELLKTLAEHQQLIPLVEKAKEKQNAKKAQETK
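Material: human UCH37 enzyme supplied as purified proteasome complex / Amount: 0.15 nM proteasome as dispensed / Buffer or medium: pH 7.4 Tris-HCl (50 mM) with ovalbumin, ATP-MgCl2, DTT / Times: preincubation 30 min, reaction 25 min, room temperature / Technique: AMC fluorescence from Ub-AMC cleavage, excitation 355 nm, emission 460 nm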
Vif TR-FRET: inhibitors of Vif binding to APOBEC3G peptide, primary screen, biochemical, TR-FRET, GST-Vif 1-94, biotin-A3G peptide, dose response retest (AID 1117319); Virion infectivity factor (Human immunodeficiency virus type 1 group M subtype B (isolate …; TR-FRET GST-Vif / biotin-A3G peptide binding; higher % means a stronger effect; test concentration not given here; strong numbers were not always called active; one-dose inhibition, %; IC50 in µM for titrated hits; actives 0.57% (n = 260,000);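 active means above the screen mean plus three standard deviations and confirmed in dose response; inconclusive means results disagree or hit not tested in dose response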;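 further: Vif residues 1-94 fused to GST binding biotinylated APOBEC3G peptide 110-148; 0% = full assay without inhibitor and 100% = GST in place of GST-Vif; retest series ran down from 100 µM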
HNF4A DNA FP: change in binding of human HNF4A to DNA, primary screen, biochemical, fluorescence polarization, FITC-DNA. 1 h. activity change, % at 10 µM. actives 0.3% (n = 360,000); in the data active means activity change above about 30%, passing the limit was not always enough;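 further: controls were the assay level and a saturating level of protein; the project sought stronger binding though the title names inhibitors; some compounds called inactive have numbers as strong as hits; positive values seem to mean higher polarization but the record does not say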
Target sequence (P41235 whole entry, looked up): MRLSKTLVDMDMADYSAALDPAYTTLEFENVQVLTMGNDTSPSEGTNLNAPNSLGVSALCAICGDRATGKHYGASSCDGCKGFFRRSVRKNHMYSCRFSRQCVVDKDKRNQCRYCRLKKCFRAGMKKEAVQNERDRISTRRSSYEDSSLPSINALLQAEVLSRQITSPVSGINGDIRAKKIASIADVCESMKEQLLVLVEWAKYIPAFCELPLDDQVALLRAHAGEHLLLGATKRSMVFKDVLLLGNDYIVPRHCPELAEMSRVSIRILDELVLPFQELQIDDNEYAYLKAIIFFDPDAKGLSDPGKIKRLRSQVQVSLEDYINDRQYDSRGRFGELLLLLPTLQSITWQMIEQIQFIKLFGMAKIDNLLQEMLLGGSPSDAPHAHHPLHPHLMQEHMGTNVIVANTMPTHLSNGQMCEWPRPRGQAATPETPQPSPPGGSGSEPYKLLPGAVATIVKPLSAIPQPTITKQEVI
Starred values were filed as active, the others as inactive; i = inactive; ? = inconclusive; · = not tested or not shown; & = joins results of further samples. The list is partial; count on the stated rates, not on these rows.

Sequence of screens – HNF4A DNA FP, UCH37 DUB inh, AF4-AF9 inh, E coli growth, FGF22 binding, RanGTP-Impb inh, Vif TR-FRET
CCOC(=O)c1cc(NC(=O)Nc2nc3ccccc3s2)c(C)nc1C
    -1.1, 3.8, ·, 0.73, ·, -0.8, ·
COc1ccc(/C=C/C(=O)N(C(C)C)C(C)C)cc1Br
    -0.2, -0.7, ·, 0.74, ·, 2.4, ?
COc1cc2c(cc1OC)CN(CC(=O)NC(=O)NC1CCCCC1)CC2
    0.7, -18, 1.2, 0.69, i, 0.3, 14%
Fc1ccccc1/C=N/Nc1nc2ccccc2o1
    1.6, ·, 2.2, ·, i, 2.0, -9%
CCC(C)c1ccccc1NC(=S)Nc1cccnc1 (stereo unspecified)
    -2.1, 0.8, ·, 0.74, ·, -2.3, -2%
COc1ccccc1NC(=O)Nc1nc(CC(=O)Nc2cc(F)ccc2F)cs1
    15, 0.7, -0.3, 0.67, ·, -1.5, 5%
O=C(NCc1ccccc1Cl)c1ccc2sc([C@@H]3O[C@H](CO)[C@H](O)[C@H](O)[C@H]3O)nc2c1
    0.6, ·, -5.6, ·, i, ·, ·
COc1cc(-c2nc(S(=O)(=O)c3ccc(Cl)cc3)c(N(C)C)o2)cc(OC)c1OC
    0.0, 2.3, ·, 0.69, ·, -3.8, -4%&-5%
CCCCCCCCn1c(=O)c(C(=O)OCC)c(O)c2ccccc21
    -1.4, 3.3, ·, 0.71, ·, 3.1, 10%
CCOc1ccc(N2C(=O)Nc3ccc(Br)cc3C2(O)C(=O)NCCN(C)C)cc1 (stereo unspecified)
    4.0, 3.8, -4.3, 0.65, i, -1.9, -4%
CC(=O)CC(c1ccc([N+](=O)[O-])cc1)c1c(O)c2ccccc2oc1=O (stereo unspecified)
    3.1, 1.3, -6.5, 0.68, i, 0.9, 2%
COc1ccc(C(=O)/C=C/c2cccnc2)c(OC)c1
    -0.1, 6.1, -1.3, 0.69, i, 2.2, ·
Cc1cc2oc(=O)cc(CN(C)Cc3cccc(F)c3)c2cc1Cl
    -0.8, -0.2, -0.7, 0.67, i, 1.4, -8%
O=C(CSc1nc2ncc(Cl)cc2[nH]1)Nc1ccccc1-c1ccccc1
    2.7, 2.5, 2.7, 0.62, i, 5.7, 3%
Cc1ccc(S(=O)(=O)N2CCN(C3CC(=O)N(CCc4ccccc4)C3=O)CC2)cc1C (stereo unspecified)
    61*, 2.1, ·, 0.73, ·, -3.8, -3%

An excerpt of these results, tab-delimited.
compound	HNF4A DNA FP	UCH37 DUB inh	AF4-AF9 inh	E coli growth	FGF22 binding	RanGTP-Impb inh	Vif TR-FRET
CCC(C)c1ccccc1NC(=S)Nc1cccnc1 (stereo unspecified)	-2.1	0.8	·	0.74	·	-2.3	-2%
CCCCCCCCn1c(=O)c(C(=O)OCC)c(O)c2ccccc21	-1.4	3.3	·	0.71	·	3.1	10%

The results go on:
Sequence of screens – HNF4A DNA FP, UCH37 DUB inh, AF4-AF9 inh, E coli growth, FGF22 binding, RanGTP-Impb inh, Vif TR-FRET
O=C(CC1Oc2ccccc2NC1=O)NC1CCCC1 (stereo unspecified)
    -0.3, -0.5, 3.6, 0.75, i, 0.0, 1%
COc1ccc(/C=C/C(=O)OCC(=O)NCCc2ccccc2)c(OC)c1
    5.2, -1.9, 3.5, 0.72, i, ·, -8%
CS(=O)(=O)c1nc(-c2ccccc2)c(-c2ccccc2)[nH]1
    1.5, 0.4, ·, 0.69, ·, -1.4, -9%
COC(=O)c1oc2c(c1C)C(=O)CC(C)(C)C2
    -0.5, 0.9, -1.2, 0.69, i, 3.9, 24%
O=S(=O)(/C=C/c1ccccc1)NC1CCCCCC1
    -1.8, 1.1, 0.5, 0.66, ·, -2.3, 0%
CCOc1ccc(CCNC(=O)c2ccc3nc(N4CCOCC4)sc3c2)cc1OCC
    0.7, 2.9, -5.2, 0.69, i, -3.5, ·
CCOC(=O)C1=CCC(c2ccc(C#N)cc2)N(S(=O)(=O)c2ccc(C)cc2)C1 (stereo unspecified)
    1.5, ·, -1.0, ·, i, ·, ·
O=C(O)C1CCCN1S(=O)(=O)c1cccc(S(=O)(=O)N2CCCC2C(=O)O)c1 (stereo unspecified)
    -2.8, 0.6, -39, 0.67&0.68, i, 3.1, ·
C#CCNC(=O)C[C@@H]1C[C@@]2(C(=O)OCC)CCCC=C2N(Cc2ccc3c(c2)OCO3)C1=O
    0.9, ·, -3.0, ·, i, ·, ·
CCOC1=NS(=O)(=O)c2ccccc21
    1.9, 1.0, -0.1, 0.73, i, ?, 6%
COc1ccccc1NC(=O)c1ccccc1NS(C)(=O)=O
    -1.4, 1.8, ·, 0.74, ·, 2.3, 7%
O=C(NCc1ccccc1F)Nc1ccc([N+](=O)[O-])cc1
    3.2, 0.6, 0.5, 0.55, i, -3.9, 3%
COc1ccc2cc(C(=O)NCCc3ccccc3)[nH]c2c1
    1.8, -1.1, -0.8, 0.69, i, -2.0, -1%
O=C(CN(CCc1ccccc1)C(=O)CNS(=O)(=O)c1ccccc1)NCc1ccco1
    -1.7, 0.9, ·, 0.78, ·, -1.6, 3%
O=C(CSc1ncn[nH]1)N1CCOCC1
    0.3, 0.5, -1.1, 0.71, i, 2.1, 12%

Next part
Sequence of screens – HNF4A DNA FP, UCH37 DUB inh, AF4-AF9 inh, E coli growth, FGF22 binding, RanGTP-Impb inh, Vif TR-FRET
Cc1cc(=O)[nH]c(SCc2cccc(F)c2)n1
    2.5, 5.6, ·, 0.7, ·, -3.1, 4%
Cc1ccccc1OC(C)C(=O)N1CCC(Cc2ccccc2)CC1 (stereo unspecified)
    -3.6, 1.4, -0.8, 0.69, i, -1.1, ·
NS(=O)(=O)c1ccc(NC(=O)COC(=O)c2cnc(Cl)c(Cl)c2)cc1
    2.0, 2.0, 3.7, 0.68, i, -1.1, ·
Cc1nc(SCC(=O)c2cc(C)n(C3CC3)c2C)c2ccccc2n1
    1.3, ·, -0.9, ·, i, ·, -1%
COc1cccc(OC)c1C(=O)Nc1ccc([N+](=O)[O-])cn1
    -1.6, 3.5, ·, 0.67, ·, -0.4, 14%
Cc1cc(=O)[nH]c(SCC(=O)NN(c2ccccc2)c2ccccc2)n1
    -0.6, 0.9, 4.3, 0.71, i, 4.4, -4%
COc1ccc(C(C(=O)NCC2CCCO2)N(C(=O)CNC(=O)c2ccco2)c2ccc(C)c(C)c2)cc1OC (stereo unspecified)
    1.1, 2.1, -1.7, 0.7, i, 1.7, ·
COc1ccccc1CCNC(=O)CSc1ccc(-c2cccs2)nn1
    -2.8, 0.6, 0.0, 0.69, i, -0.7, -4%
Cc1cc(Cl)ccc1NC(=S)NCC(C)C
    1.0, 1.5, 3.2, 0.66, i, 0.8, ·
O=C(O)C(Cc1ccccc1)N1C(=O)C2CCCCC2C1=O (stereo unspecified)
    -1.4, 2.6, 0.3, 0.66, i, -1.9, ·
CC(=O)c1cccc(NC(=O)COC(=O)CC2CC3CCC2C3)c1 (stereo unspecified)
    2.0, 3.1, 0.7, 0.68, i, ·, 4%
CCOC(=O)C1CCN(Cc2nc3ccc([N+](=O)[O-])cc3c(=O)n2-c2ccc(OC)cc2OC)CC1
    -1.8, 3.6, -1.7, 0.7, i, 0.2, -4%
Cc1onc(-c2ccccc2)c1C(=O)Nc1nc(-c2ccccc2)cs1
    -3.1, -0.5, ·, 0.71, ·, -0.4, -22%
CCN(CC)C(=O)c1ccc(CS(=O)(=O)c2ccc(Br)cc2)cc1
    2.1, -0.4, -1.3, 0.63, i, 3.5, -4%
CCCCc1nc(NCCN2CCOCC2)c(C#N)c2c1COC(C)(C)C2
    3.0, 0.6, ·, 0.68, ·, -0.7, -6%

The list continues.
Sequence of screens – HNF4A DNA FP, UCH37 DUB inh, AF4-AF9 inh, E coli growth, FGF22 binding, RanGTP-Impb inh, Vif TR-FRET
CCOc1ccc2nc(NC(=O)CSc3nc(-c4ccccc4)c(C#N)c(=O)[nH]3)sc2c1
    3.4, 0.0, -1.8, 0.71, i, 1.5, -25%
CN(C(=O)c1cccc(NC(=O)Cc2cccc(NC(=O)C3CCN(C(=O)C4CCC4)CC3)c2)c1)C1CC1
    -0.9, 5.1, -2.6, 0.7, i, ·, 3%
COc1ccc(-c2cc(C(=O)N/N=C/c3ccc4c(c3)OCO4)c3ccccc3n2)c(OC)c1
    2.0, ·, ·, ·, ·, -0.7, -3%
COc1ccccc1CNC(=O)COC(=O)CCN=C1NS(=O)(=O)c2ccccc21
    0.0, 0.8, -12, 0.67, i, -0.6, 3%
CCCn1c(SCC(=O)N2CCc3ccccc32)nnc1-c1ccco1
    3.3, -1.0, ·, 0.78, ·, -1.9, 18%
O=S(=O)(NCc1ccccc1Cl)c1ccc(-n2cnnn2)cc1
    0.2, 3.5, -0.4, 0.7, i, -3.6, ·
COCCNC(=O)/C(C#N)=C/c1cccs1
    0.7, 11, 1.2, 0.68, i, -2.0, -4%
COc1cc(/C=N\NC(=O)c2ccc(-c3ccccc3)cc2)cc(OC)c1O
    -3.2, ·, 0.7, ·, i, -3.3, ·
O=C(Nc1ccc(N2CCCC2)cc1)c1cc([N+](=O)[O-])ccc1N1CCOCC1
    4.2, 10, 21, 0.67, i, 3.9, ·
COc1ccc(S(=O)(=O)Nc2ccc(S(=O)(=O)N3CCCCC3)cc2)cc1OC
    -2.4, 5.7, ·, 0.73, ·, -5.6, 1%
Cc1ccccc1NC(=O)C(C)Sc1nnc(CN2CCCC2)n1Cc1ccccc1 (stereo unspecified)
    -0.7, ·, 0.2, ·, i, ·, -2%
COc1ccccc1CNC(=O)c1cc(-c2ccc(F)cc2OC)n[nH]1
    -0.4, ·, 2.0, ·, i, ·, ·
COc1cccc(N(CC(=O)N2CCOCC2)S(C)(=O)=O)c1
    1.0, 2.6, -2.5, 0.7, i, 3.2, ·
C/C(CC(=O)Nc1ccc(N(C)C)cc1)=N\NC(=O)c1ccncc1
    4.1, ·, 9.5, ·, i, 7.0, 10%
O=C(NCCCCCCCN1CCCCCCC1)C(C1CCCCC1)C1CCCCC1
    24, ·, ?, ·, i, ·, 4%

(more compounds)
Sequence of screens – HNF4A DNA FP, UCH37 DUB inh, AF4-AF9 inh, E coli growth, FGF22 binding, RanGTP-Impb inh, Vif TR-FRET
Cc1ccc(CN(c2ccc(C(=O)N3CCOCC3)cc2)S(C)(=O)=O)cc1
    0.0, 1.2, ·, 0.68, ·, 11, 0%
O=[N+]([O-])c1ccccc1/C=C/c1ccc2ccccc2n1
    0.2, ·, 8.9, ·, i, 8.3, 4%
CCCOc1ccc(N2CC(C(=O)Nc3ccc(N4CCOCC4)cc3)CC2=O)cc1 (stereo unspecified)
    4.8, -0.3, -2.0, 0.65, ·, -3.2, ·
COc1ccc(NC(=O)CSc2c(C)nn(-c3nnc(C)c(=O)[nH]3)c2C)cc1
    0.0, -1.1, ·, 0.71, ·, -0.5, -1%
Cc1cc(NC(=O)CSc2nc3c(sc4ccccc43)c(=O)n2CCCN2CCOCC2)n[nH]1
    1.8, -13, ·, 0.69, ·, -0.2, -22%&5%
CC(Cc1ccccc1)Nc1ncnc2c1ncn2C1OC(CO)C(O)C1O (stereo unspecified)
    2.4, -0.4, -4.0, 0.69&0.68, i, 5.3, ·

Bioassay records from PubChem.
